# AmpC nodet inh = Promiscuous and Specific Inhibitors of AmpC Beta-Lactamase (assay without detergent); P00811; Potency, µM (titrated, usually from 28.7 µM), inactives show at the highest dose activity change, negative = inhibition; AmpC nitrocefin hydrolysis, absorbance 480 nm, no detergent; potencies from a single point are estimates; AID 585, 2007; 1.8% of 71,000 active; active = falling curve, for most hits resting on a single point; inconclusive = weak or doubtful change; inactive = flat or rising curve; also: % of control where 0% means no effect; about half of the hits show no inhibition at the top dose; a quarter of the inactives give rising signals
# Target sequence (P00811 whole entry, looked up): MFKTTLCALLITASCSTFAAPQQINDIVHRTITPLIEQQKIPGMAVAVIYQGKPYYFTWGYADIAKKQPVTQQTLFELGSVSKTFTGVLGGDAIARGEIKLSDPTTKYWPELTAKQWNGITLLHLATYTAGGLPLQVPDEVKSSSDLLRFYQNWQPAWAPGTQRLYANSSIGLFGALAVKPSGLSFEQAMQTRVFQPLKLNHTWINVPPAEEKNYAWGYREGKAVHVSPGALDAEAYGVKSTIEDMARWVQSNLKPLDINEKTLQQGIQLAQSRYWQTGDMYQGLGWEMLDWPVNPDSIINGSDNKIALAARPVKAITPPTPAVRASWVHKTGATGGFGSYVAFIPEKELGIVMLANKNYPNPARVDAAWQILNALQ
#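 AmpC, 20 mM phosphate pH 7.0; 15 min cpd preinc, RT; start with nitrocefin (800 uM stock); A480 kinetic read, 20 s intervals, 4 min. No-enzyme wells = negative control.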
# Starred values were filed as active, the others as inactive; ? = inconclusive; [ ] = dose if it differs, or a comment. Potency is read from the fitted curve at half-maximal effect. Not all compounds are listed; count on the stated rates, not on these rows.
SMILES,AmpC nodet inh
CCOC(=O)C1(C)NC(c2ccc(N(C)C)cc2)C2C(=O)N(c3ccc(OC)cc3)C(=O)C21 (stereo unspecified),67.4%
c1cncc(-c2nc(-n3ccnc3)c3ccccc3n2)c1,5.9%
O=C(OCC1CC(c2ccccn2)=NO1)c1ccc(Br)cc1 (stereo unspecified),26.8%
Cc1cnc(CNc2ncncc2-c2cccnc2)cn1,1.0%
CCC(c1nnnn1Cc1ccc(F)cc1)N1CCN(C2CCCCC2)CC1 (stereo unspecified),12.3%
c1cn2cc(CSC3CCCCC3)nc2s1,-1.8%
Cc1ccc(-c2nc(C#N)c(NCc3ccco3)o2)cc1,-16.5%
COc1ccc(-c2nc(Cn3c(SCc4cccc(F)c4)nc4ccncc43)c(C)o2)cc1OC,123.1%
CCn1ncc(NC(=O)Nc2cccc(C(F)(F)F)c2)c1C(N)=O,-13.5%
O=C(CCCCCn1c(=O)[nH]c2ccsc2c1=O)N1CCCCC1,-1.6%
COc1ccc(OC)cc1,-13.3%
O=C1c2ccccc2C(=O)C1c1ccc2ccccc2n1,-5.3%
CN(C)CCCn1cnc2cc(Cl)c(Cl)cc21,4.0%[5.75 µM]
O=C(COc1c(F)c(F)cc(F)c1F)NC(=O)NC1CCCC1,-20.0%
COc1ccccc1N=c1scc(-c2ccc3c(c2)NC(=O)CO3)n1CC1CCCO1 (stereo unspecified),117.1%
CN(C=O)CP(=O)(O)CCN1CCCC1=O,68.7%
COc1ccc(NC(=O)CCc2ccccc2)cc1NC(=O)c1ccco1,11.4%
COc1ccc(CCNC(=O)COC(=O)c2ccco2)cc1OC,-4.1%
CCOC(=O)c1ccc(N(CC(=O)NC2CCCC2)C(=O)CNC(=O)c2ccco2)cc1,27.2%
CC(C)CC1(C(=O)O)NC(c2ccccc2O)C2C(=O)N(C(C)C)C(=O)C21 (stereo unspecified),-0.6%
COC(=O)c1cccc(NC(=O)CSc2nc3cccnc3n2C)c1,8.6%
COc1ccc(CCNC(=O)c2cnn3cccnc23)cc1OC,15.0%
Clc1cccc(OCCN2CCOCC2)c1,2.3%
CCCC(=O)Nc1ccc(C(=O)NCCCn2ccnc2)cc1,-5.9%
O=C(c1cc2nc(-c3ccc(F)cc3)cc(C(F)(F)F)n2n1)N1CCOCC1,5.4%
O=C(CS(=O)(=O)c1c[nH]c2ccccc12)Nc1ccc2c(c1)OCCO2,-23.2%
O=C(NCc1ccccn1)C(F)(F)C(F)(F)C(=O)NCc1ccccn1,4.4%
COc1cccc(C2=NOC(C(=O)N3CCN(c4ccccc4)CC3)C2)c1OC (stereo unspecified),74.9%
CCc1ccc(N2CC(C)Cn3c2nc2c3c(=O)n(CCN3CCOCC3)c(=O)n2C)cc1 (stereo unspecified),135.6%
O=C(Oc1ccccc1)N1CCC2(CC1)CCN(c1ncccn1)CC2,3.9%
CCOc1ccc(-c2nc(-c3ccncc3)no2)cc1OCC,66.4%
COc1cc(N(C)C)c(NC(C)=O)cc1C(=O)O,-4.6%
CCOc1ccc(NC(=O)c2nnn(CC(=O)Nc3ccccc3OCC)c2N)cc1,6.0%
Cc1nc(C)c(C(=O)C2=C(O)C(=O)N(CCN(C)C)C2c2ccccc2)s1 (stereo unspecified),-15.4%
COc1ccc(S(=O)(=O)N[C@H](C(=O)O)C(C)C)cc1,4.1%
N#Cc1nc(COc2ccc(F)cc2)oc1N1CCC(Cc2ccccc2)CC1,-4.8%
COc1ccc2c3c(ccc2c1)N[C@H](C(=O)O)CC3,10.4%[5.75 µM]
Cc1ccc(S(=O)(=O)C2(C(=O)N3CCCCC3C)CC2)cc1 (stereo unspecified),13.1%
Cc1c(OCc2nn[nH]n2)ccc2c3c(c(=O)oc12)CCC(C)C3 (stereo unspecified),-20.0%
COc1ccc(C(=O)OCCN2C(=O)c3ccccc3C2=O)cc1OC,3.4%
O=C(NC1CCCC1)NS(=O)(=O)c1ccccc1Cl,-17.7%
COCC(=O)N1CCC2(CCN(Cc3nccs3)CC2)CC1,-0.8%
COc1ccc(OC)c(S(=O)(=O)N(C)CC(=O)N2CCN(c3ccccc3F)CC2)c1,98.8%
CN(C)c1ncc2nc(CCc3ccccc3)c(=O)n(C[C@H]3CCCO3)c2n1,70.7%
CCn1c(SCC(=O)c2cc(OC)ccc2OC)nc2c1c(=O)n(C)c(=O)n2C,4.0%
Cc1ccc(-c2c(C)n([O-])c3c([n+]2=O)CCCCC3)o1,2.5%
CCC(C)NC(=O)C1CCN(S(=O)(=O)N2CCCC2)CC1 (stereo unspecified),-12.0%
c1nc(N2CCNCC2)c2cc(-c3ccoc3)ccc2n1,16.8%
CCN(c1ccccc1)S(=O)(=O)c1ccc(OCc2c(C)noc2C)cc1,31.4%
COc1ccc(CSCCN)cc1Cl,-15.6%
N#CCSCC(=O)Nc1ccccc1,7.1%
CCOC(=O)c1c(CC(C)C)csc1NC=O,13.3%
Cn1nnnc1SCc1ccccc1F,0.6%
CCOC(=O)c1ccc(-n2ncc(C(=O)OCC)c2N)cc1,10.4%
CCN(CC)S(=O)(=O)c1ccc(Cl)c(C(=O)OC)c1,4.1%
Cc1cc(C)c(S(=O)(=O)N(CC(=O)N2CCCC2)C2CCCCC2)c(C)c1,84.3%
COCCn1c(Cc2ccccc2)nnc1SCC(=O)Nc1cc(C)on1,10.4%
COc1cc(-c2nnc(SCC(=O)N(Cc3ccccc3)C(C)(C)C)o2)cc(OC)c1OC,93.2%
Cc1[nH]c2ccccc2c1C(=O)COC(=O)C1CC(=O)N(Cc2ccco2)C1 (stereo unspecified),59.4%
CCCCOC(=O)C1=C(N)OC2=C(C(=O)CCC2)[C@]12C(=O)Nc1ccccc12,37.3%
# Continuation.
SMILES,AmpC nodet inh
CCn1c(CNC(=O)Cc2ccc(OC)cc2)nnc1SCC(=O)Nc1nccs1,11.7%
CCCn1c(SCC(=O)Nc2cccc(C(=O)OCC)c2)nnc1-c1ccoc1C,54.1%
CC1CCc2ccc(F)cc2N1S(=O)(=O)c1cccs1 (stereo unspecified),-7.7%
CC(=O)C1=C(C)NC(C)=C(C(C)=O)C1c1ccc(-c2ccccc2Cl)o1,72.9%
CCCn1nnnc1NCc1ccccc1OCc1ccc(F)cc1,6.8%
COc1cccc(C(=O)NCCC2=CCCCC2)c1OC,25.4%
O=C(c1ccc(S(=O)(=O)Nc2ccccc2)cc1)N1CCOCC1,9.3%
c1ccc(NCCCNc2ccccc2)cc1,-2.5%
Cc1n[nH]c(C)c1S(=O)(=O)N1CCCC(C(=O)NC2CCCCC2)C1 (stereo unspecified),23.6%
COc1ccc(C(=O)Nc2c(N)nc(SCC(=O)N3CCC(C)CC3)[nH]c2=O)cc1OC,60.9%
OCCNc1nc(OCC(F)(F)F)nc(N2CCN(C34CC5CC(CC(C5)C3)C4)CC2)n1,59.3%
Cn1cc(CNC(=O)Nc2ccc3c(c2)OCO3)cn1,-1.4%
O=C(Cc1ccccc1)N1CCN(C(=O)c2cccs2)CC1,7.1%
COc1ccc(-c2nc3cnc(Oc4cccc(Cl)c4)nc3n(C[C@H]3CCCO3)c2=O)cc1,-6.4%
Cc1cccc(NC(=O)Nc2ccc(C#N)cc2)n1,0.1%
CCC(Sc1ncccc1C(=O)OCCN1CCCC1=O)C(=O)NCc1ccco1 (stereo unspecified),38.7%
Cc1csc(NC(=O)CCc2nc3ccccc3s2)n1,22.1%
COc1ccc(OC)c(N2C(=O)C(Cl)=C(N3CCCCC3)C2=O)c1,34.5%
COc1ccc2oc(=N)c(C(=O)Nc3ccccc3)cc2c1,-13.3%
CC1Cc2ccccc2N1C(=O)CSc1nnnn1Cc1ccccc1 (stereo unspecified),14.5%
CCc1c(C)[nH]c2c1C(=O)[C@H](CN1CCOCC1)CC2,-7.3%[12.8 µM]
Cn1c(C(=O)N2CCCCCC2)cc2c(=O)n(C)c3ccccc3c21,?
Cc1ccc(S(=O)(=O)N2CCN(C3CC(=O)N(Cc4ccccc4)C3=O)CC2)cc1C (stereo unspecified),72.0%
CC(NS(=O)(=O)c1ccc(Br)cc1)C(N)=O (stereo unspecified),-5.0%
O=[N+]([O-])c1ccccc1O,5.9%
COc1cccc2cc(-c3nnc(SCC(=O)Nc4cc(C(F)(F)F)ccc4Cl)n3N)oc12,16.0%
CC(=O)c1cccc(NC(=O)NCc2cccnc2)c1,-0.1%
Cc1c(Cl)cccc1NC(=O)c1cc(-c2ccc(O)cc2)on1,12.6µM*[single pt active]
COc1ccccc1CCC(=O)Nc1nc2ccccc2[nH]1,-18.0%
Cn1c(COc2ccccc2)nnc1SCCC(=O)Nc1ccccc1,34.2%
O=C(CS(=O)(=O)Cc1ccccc1)Nc1ccccn1,-9.0%
FC(F)(F)c1ccccc1-c1nc(NCc2cccs2)c2ccccc2n1,-4.6%
Cc1ccc(NC(=O)Cn2c(=O)n(CCCC(=O)NCc3ccco3)c(=O)c3ccccc32)cc1,14.2%
CC(C)(C)OC(=O)NCCc1nnc(SCc2ccccc2Cl)o1,64.1%
Cc1cc(C)c2[nH]c(=O)c(=O)[nH]c2c1,-16.7%
CCCCn1c(CCNC(=O)CCC)nc2ccccc21,33.0%

# Filtered by structure, those above with a tert-butyl group
SMILES,AmpC nodet inh
COc1cc(-c2nnc(SCC(=O)N(Cc3ccccc3)C(C)(C)C)o2)cc(OC)c1OC,93.2%
CC(C)(C)OC(=O)NCCc1nnc(SCc2ccccc2Cl)o1,64.1%

# Ordered by count of non-hydrogen atoms (largest number first): part of the list above.
SMILES,AmpC nodet inh
Cc1ccc(NC(=O)Cn2c(=O)n(CCCC(=O)NCc3ccco3)c(=O)c3ccccc32)cc1,14.2%
COc1cccc2cc(-c3nnc(SCC(=O)Nc4cc(C(F)(F)F)ccc4Cl)n3N)oc12,16.0%
FC(F)(F)c1ccccc1-c1nc(NCc2cccs2)c2ccccc2n1,-4.6%
COc1ccccc1CCC(=O)Nc1nc2ccccc2[nH]1,-18.0%
CCCCn1c(CCNC(=O)CCC)nc2ccccc21,33.0%
O=C(CS(=O)(=O)Cc1ccccc1)Nc1ccccn1,-9.0%
O=[N+]([O-])c1ccccc1O,5.9%

# Next part
SMILES,AmpC nodet inh
O=C(O)C(Br)CBr (stereo unspecified),-8.4%
CC(=O)Nc1ccc(S(=O)(=O)N(Cc2ccco2)CC2CCCO2)cc1 (stereo unspecified),5.3%
c1ccc(Oc2ccccc2)cc1,0.4%
CC(=O)Nc1ccc(S(=O)(=O)Nc2nc3c(s2)CCCC3)cc1,-15.1%
Cn1c(SCC(=O)N2CCCC2)nc2ccccc2c1=O,2.7%
Cc1ccc(Cn2ccc(NC(=O)c3cc(CC(C)C)on3)n2)cc1,3.98µM*[single pt active]
COc1cc(/C=C/C2=NC(=O)C(C)(C)O2)ccc1O,-5.3%
Cc1[nH]c2ccccc2c1Cc1nnc(SCC(N)=O)o1,-0.2%
Clc1ccc(Cl)c2sc(N3CCOCC3)nc12,21.8%
COc1ccc(-c2noc(CCCOc3ccccc3)n2)cc1OC,92.3%
CCOC(=O)CSc1ncnc2c1cnn2-c1ccc(C)cc1,7.9%
O=c1c2c(nc3c(-c4ccccc4)c[nH]n13)CCCC2,-13.0%
CC1(C)C=Cc2c(c3ccccc3[nH]c2=O)O1,-1.1%
C=CC(=O)NCNC(=O)C=C,6.4%
Cc1cn([C@H]2C[C@H](O)[C@@H](COC(N)=O)O2)c(=O)[nH]c1=O,-8.1%[5.75 µM]
COc1ccc(CN(CCCN2CCOCC2)S(=O)(=O)N(C)C)cc1OC,11.5%
Cc1ccc(C2C3CSCC=C3C(C#N)=C(N)C2(C#N)C#N)cc1 (stereo unspecified),-7.8%
Cc1ccc(-c2cc(C(=O)N3CCN(C(=O)c4ccco4)CC3)no2)cc1,85.8%
CCn1c(SCC(=O)N2c3ccccc3Sc3ccccc32)nnc1-c1ccco1,78.4%
Cc1cc(NC(=O)CCC(=O)N(Cc2cccs2)C(C(=O)NC2CCCC2)c2ccncc2)no1 (stereo unspecified),52.2%
CCOc1ccc(C2CC(c3cccc(OC)c3OC)n3nnnc3N2)cc1Cl (stereo unspecified),69.1%
CCOC(=O)C(C(=O)OCC)C(C#N)c1ccccc1 (stereo unspecified),8.1%
Cc1oc(-c2ccccc2Cl)nc1CSCC(=O)N1CCCC1,43.9%
COc1ccccc1C(=O)Nc1ccc2c(c1)OCCO2,-2.2%
Cc1cccc2cc(CN(Cc3ccc(F)cc3)Cc3nnnn3C3CCCC3)c(=O)[nH]c12,106.7%
O=C(Nc1nnc(Cc2ccccc2)s1)c1cccs1,-4.4%
Cc1nc2c(-c3ccccc3)c(C)nn2c(C)c1CCC(=O)NCc1ccco1,107.7%
CCn1c(CNC(=O)c2ccc(OC)cc2)nnc1SCC(=O)c1ccccc1,41.9%
CCOC(=O)c1cc2sccc2n1CC(=O)N1CCCc2ccccc21,36.1%
CCn1c2ccccc2c2nnc(SCC(=O)NCc3cccs3)nc21,2.2%
NC(=O)NO,-6.0%
CCOc1cccc(N2C(=O)CC(=O)NC2=O)c1,-2.9%
Cc1nn(Cc2ccc(F)cc2)c(C)c1NC(=O)c1cc(-c2ccco2)on1,-0.9%
CCOc1ccc(OCC)c(NC(=O)c2ccc(CNc3c(N4CCOCC4)c(=O)c3=O)cc2)c1,97.0%
Clc1ccc(OCc2nnc(SCCN3CCCCC3)n2Cc2ccco2)cc1,99.1%
CC1(C(=O)O)CCC(C(=O)NCCc2ccccc2)C1(C)C (stereo unspecified),-6.5%
COc1ccc(-c2nn(CCC(=O)O)cc2CCC(=O)O)cc1,-6.7%
CC1(C)CC(CCC(=O)Nc2ccccc2Cl)C(=O)O1 (stereo unspecified),-5.9%
C[C@]12CC[C@@H]3c4ccc(O)cc4CC[C@H]3[C@@H]1CC[C@@H]2O,-7.0%
O=C(NCCc1ccccc1)C1CC(c2ccccc2O)=NO1 (stereo unspecified),12.9%

# Assay outcomes (PubChem)
